# Bioassay records from PubChem.
# PINK1 modulator: A Quantitative High throughput Screen to Identify Chemical Modulators of PINK1 Expression. PINK1 immunofluorescence, high-content cytometry, 24 h. Potency, µM (top dose mostly 76.6 µM), inactives show at the top dose activation (PINK1 increase), most hits filed as activators. 410,000 tested, 0.2% active; active = well fitted activation curve with a large enough effect; inconclusive = small, poorly fitted or top-dose-only effect; inactive = flat fitted curve, though single readings scatter; cell line not stated here;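 also: potency is read from the fitted curve at half-maximal effect; % of control where 0% means no effect; nearly all actives have a fitted effect of over 65% in size; a mitochondrial uncoupler was the plate control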
#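 Stable cell line, 250 cells/well, 12 h attachment; compounds pinned at 5 concentrations, 24 h; CCCP control. Fixed with nuclear dye, primary antibodies 12 h at 10 degrees C, secondary plus cell stain; laser-scanning cytometer read.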
# TRPML1 agonist: qHTS for Agonists of the Human Mucolipin Transient Receptor Potential 1 (TRPML1). Mucolipin-1 (Homo sapiens), Q9GZU1. 410,000 tested, 0.12% active. AID 624414, 2012. TRPML1-expressing cells, Ca2+ dye fluorescence, FDSS; host cell line not named in the record; reference of the full effect not given here. activation, % (no concentration beside the values); in the data active = activation above about 50%; inconclusive = about 30% to 50%; inactive = below about 30%; also: 0% is about no effect; the text of the record puts the active cut at 80%
# Target sequence (Q9GZU1 whole entry, looked up): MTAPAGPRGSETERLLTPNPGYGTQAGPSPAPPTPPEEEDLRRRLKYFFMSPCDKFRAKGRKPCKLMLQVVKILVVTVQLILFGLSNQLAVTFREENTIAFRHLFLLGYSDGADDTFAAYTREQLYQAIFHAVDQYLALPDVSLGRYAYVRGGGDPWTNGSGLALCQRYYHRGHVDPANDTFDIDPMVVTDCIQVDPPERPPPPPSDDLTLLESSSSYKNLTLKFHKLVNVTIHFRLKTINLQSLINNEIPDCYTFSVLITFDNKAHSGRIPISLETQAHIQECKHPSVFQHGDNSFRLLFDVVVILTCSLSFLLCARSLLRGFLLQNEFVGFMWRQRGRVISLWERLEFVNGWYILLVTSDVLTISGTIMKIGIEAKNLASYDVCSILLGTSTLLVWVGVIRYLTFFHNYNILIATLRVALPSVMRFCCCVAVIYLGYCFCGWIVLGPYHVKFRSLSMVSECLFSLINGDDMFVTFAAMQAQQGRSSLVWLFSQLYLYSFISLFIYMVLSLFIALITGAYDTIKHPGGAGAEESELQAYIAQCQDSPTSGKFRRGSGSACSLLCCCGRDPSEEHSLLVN
#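 Tetracycline-induced TRPML1-DL cells are seeded and incubated overnight before loading with a no-wash Ca2+ dye and quencher. Agonist activity is taken from the 110 s fluorescence read following compound pin-transfer on an FDSS, before EC80 54-4 challenge.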
# ClpP mod: qHTS Assay for Activators of ClpP | ATP-dependent Clp protease proteolytic subunit (Bacillus subtilis (strain 168)), P80244 | purified B. subtilis ClpP, FRET peptide cleavage, 20 min | Potency, µM (highest dose often 57.5 µM), for inactives: at the highest dose activity change, negative = active | 340,000 tested, 1.9% active | AID 651965, 2013; active = well fitted falling curve with a large enough effect; inconclusive = small, poorly fitted or top-dose-only effect; inactive = no such curve, though single readings can be large or run the other way; also: potency is read from the fitted curve at half-maximal effect; the source files actives as falling curves though it sought activators and does not explain the sign; nearly all actives have a fitted effect of over 65% in size; many hits overshoot -100%
# Target sequence (P80244 whole entry, looked up): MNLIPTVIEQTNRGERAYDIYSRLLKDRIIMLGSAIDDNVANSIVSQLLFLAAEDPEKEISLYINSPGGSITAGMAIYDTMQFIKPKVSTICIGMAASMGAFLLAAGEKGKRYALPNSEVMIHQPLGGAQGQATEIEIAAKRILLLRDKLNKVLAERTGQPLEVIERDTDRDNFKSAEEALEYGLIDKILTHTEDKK
#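 FRET quenching reversal measured ClpP activation: 10 microg/mL B. subtilis ClpP at pH 8 with the FRET-FV decapeptide, read at 430 nm after 320 nm excitation. The 20-min minus 0-min signal was scaled between DMSO/no-enzyme wells and ADEP (5.8 microM final).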
# TRPML1 blocker: qHTS for Inhibitors of the Human Mucolipin Transient Receptor Potential 1 (TRPML1); Mucolipin-1 (Homo sapiens), Q9GZU1; TRPML1-inducible cells, Ca2+ dye fluorescence, FDSS; active compounds read low; inhibition of EC80 agonist-evoked calcium signal; activity change, negative = inhibition, % (no concentration beside the values); 390,000 tested, 0.02% active; in the data active means activity change below about -50%; inconclusive means about -30% to -50%; inactive means above about -30%;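 also: stimulus is agonist 54-4 at its EC80 concentration; % is scaled to controls: 0 for no effect and ±100 for the full control effect; compound concentration not given in the record; the text of the record puts the active cut at -80%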
#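 Tet-induced TRPML1-DL cells loaded with Ca8 no-wash calcium dye were read kinetically on FDSS. Compound addition was followed by EC80 agonist 54-4 (4 uM final); inhibition was read over 110 s.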
# Sfp PPTase inh: qHTS Assay for Inhibitors of Bacillus subtilis Sfp phosphopantetheinyl transferase (PPTase) | 4'-phosphopantetheinyl transferase ffp (Bacillus subtilis), Q9F4F7 | Biochemical Sfp PPTase activity, qHTS | Potency, µM, for the others: max response, negative = inhibition, actives largely listed as inhibitors | 310,000 tested, 3.5% active | AID 1490, 2009; active = well fitted inhibition curve with a large enough effect; inconclusive = small, poorly fitted or top-dose-only effect, or another doubt; inactive = no such curve, though single readings can be large or run the other way;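 also: the enzyme is Sfp with the accession as filed and its product quenches rhodamine fluorescence; potency is read from the fitted curve at half-maximal effect; 0% = enzyme reaction without inhibitor and -100% = no enzyme wells; top concentration of the series not given in the record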
#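 Step 1, compound plus 15 nM Sfp-PPTase, 15 min, room temperature. Step 2, add rhodamine-CoA (5 uM) and BHQ-2-YbbR (12.5 uM). Step 3, read 525/598 nm fluorescence at 0 and 30 min.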
# Menin-MLL FL inh: qHTS Assay for Inhibitors Targeting the Menin-MLL Interaction in MLL Related Leukemias: Competition With Fluorescein Labeled MLL-derived Peptide; Fluorescence polarization, fluorescein-MLL peptide displacement from menin; FP activity change, % at 61.4 µM; 290,000 tested, under 10 active; inconclusive = falling polarisation curve, or a change in total fluorescence; inactive = total fluorescence flat and polarisation flat or rising; no compound was filed as active; the % refers to the polarisation; negative = inhibition;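 also: % of control where 0% means no effect; inhibitors lower the polarisation; unlabelled MLL peptide was the positive control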
# TRPV1 potentiator: HTS Assay for Compounds that Act as Potentiators of the Vanilloid Receptor 1; 320,000 tested, 0.02% active; TRPV1-expressing cells, Fluo-8 calcium influx, capsaicin EC20 potentiation; host cell line not named in the record; control for the full effect not named in the record; potentiation, % at 8.33 µM; Transient receptor potential cation channel subfamily V member 1 (Homo sapiens), Q8NER1; active means potentiation above 80%; inconclusive means 30% to 80%; inactive means below 30%; also: 0% is about no effect
#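 TRPV1-expressing cells were cultured overnight at 35.5C and loaded with Fluo-8 calcium dye for 40 to 90 min at room temperature. After a 10 s baseline, compound was added and calcium influx was read kinetically for 3 min (ex 480/em 520 nm).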
# The depositor's hits bear a star; ? = inconclusive; · = no result given; & = joins results of further samples; [ ] = dose if it differs, or a comment. These rows are one share of the data (hit frequency here may not be typical).
# Every second line gives: PINK1 modulator	TRPML1 agonist	ClpP mod	TRPML1 blocker	Sfp PPTase inh	Menin-MLL FL inh	TRPV1 potentiator
O=C(NCC(c1cccnc1)N1CCN(c2ccccc2F)CC1)Oc1ccccc1 (stereo not drawn)
→ 0.5%	-1.1	22µM*	3	3%	1.4	-6
Cc1nnc2n1-c1ccc(Cl)cc1C(c1ccccc1)=NC2
→ ·	·	·	·	13%&6%	-0.2&-6.4	-2
O=C1NCCN2CCCC12 (stereo not drawn)
→ 2.2%	-0.5	-0.1%	-4	14%	2.4	0
O=C1NCN(c2ccccc2)C12CCN(C(c1ccnc3ccccc13)c1nnnn1C1CCCC1)CC2 (stereo not drawn)
→ 3.7%	-0.5	-2.4%	·	·	·	·
COc1cccc(NP2(=O)OCC(C)([N+](=O)[O-])CO2)c1 (stereo not drawn)
→ -4.3%	-0.2	-6.4%	13	·	·	·
CC(C)C[C@H]1C(=O)N2CCC[C@H]2[C@]2(O)O[C@](NC(=O)[C@@H]3C=C4c5cccc6[nH]cc(c56)C[C@H]4N(C)C3)(C(C)C)C(=O)N12
→ 11%	2.3	4.4%	1	·	·	17
CC(=O)NCC1=C(c2ccc3ccccc3c2)C[C@@H]2CC[C@H]1N2Cc1ccco1
→ 1.4%	0.7	-3.6%	16	·	·	·
O=[N+]([O-])c1cccc(CCl)c1
→ 0.4%	-0.6	-7.8%	-2	·	·	-24
COC(=O)C1=C(c2cccc(C#N)c2)C[C@@H]2CC[C@H]1N2C(=O)NCC1CC1
→ 2.0%	0.4	-3.1%	-1	·	·	9
CCOc1ccc(N2C(=O)NC(=O)/C(=C\c3ccccc3[N+](=O)[O-])C2=O)cc1
→ 3.1%	0.3	-5.1%	4	45µM*	5.0	-23
Cc1ccc(-[n+]2c(Cc3nn(-c4ccccc4)c(C)[n+]3-c3ccc(C)cc3)nn(-c3ccccc3)c2C)cc1
→ -1.1%	-0.1	-0.8%	-12	·	·	·
C=C(Cl)CSC(=S)N(CC)CC
→ 3.4%	-0.3	-0.4%	41	·	·	-4
COc1ccc(/C=C2\C(=O)NC(=O)N(CCC3=CCCCC3)C2=O)c(OC)c1
→ 1.1%	-0.4	5.9%	1	56µM*	?	-12
Cc1ccccc1N1CCN(Cc2ccc3c(c2)OCO3)CC1
→ 6.3%	-0.9	0.6%	0	-6%	0.3	10
Cc1ccc(/C=C2\C(=O)NC(=S)N(c3ccccc3F)C2=O)s1
→ -3.3%	0.3	0.7%	-6	14µM*	?	4
CCOCCN1CCC(OC(C)=O)C(C)C1 (stereo not drawn)
→ -3.0%	0.4	-2.4%	13	-1%	0.2	-5
CSCCC(N=Cc1c(O)n(-c2ccc(Cl)cc2)c(=O)[nH]c1=O)C(=O)OC(C)(C)C (stereo not drawn)
→ ·	-0.5	-1.7%	13	24%	3.8	11
CCC(C)NC(=O)CCC(=O)OC1O[C@H]2OC3(C)CC[C@H]4[C@H](C)CCC(C1C)C24OO3 (stereo partly drawn)
→ -2.2%	2.5	-1.0%	-19	11%	-0.3	-23
COc1ccc(/C=C2\C(=O)NC(=O)N(Cc3ccccc3)C2=O)c(OC)c1OC
→ 3.7%	0.2	0.8%	26	35µM*	?	17
CCOCCc1c(O)[nH]c(=S)[nH]c1=O
→ 2.3%	0.8	·	6	16%	0.0	-12
COc1ccc(CCNCc2cc(OC)cc(OC)c2)cc1
→ -0.2%	-0.5	0.2%	-3	·	·	·
Cc1ccc(C)c(C2(O)CC(C)N(C)CC2C)c1 (stereo not drawn)
→ -1.7%	0.1	-1.5%	-13	9%	-0.5	3
CC(C)N1CCN(Cc2c[nH]c3ccccc23)CC1CCO (stereo not drawn)
→ -0.5%	0.4	-4.2%	-5	1%	-1.7	7
CC(C)CCn1c(=O)c(C(=O)Nc2ccccc2S(N)(=O)=O)c(O)c2ccccc21
→ ?	1.0	-0.5%	-6	25%	-0.9	2
S=C1Nc2ccccc2Sc2ccccc21
→ 3.0%	2.6	·	3	?	-1.0	0
CCc1nc2ccccc2c(=O)n1-c1ccccc1OC
→ -0.1%	-0.1	·	18	5%	-16	-9
COc1ccccc1-n1c(O)c(C=NCc2ccc3c(c2)OCO3)c(=O)[nH]c1=O
→ -1.8%	-0.7	-1.9%	20	-5%	2.4	2
CC(C)Sc1nnc(OC(=O)N(C)C)n1-c1ccccc1
→ 1.4%	0.3	-2.1%	9	23%	0.7	5
COC(=O)c1sc2nc(SCc3cccc(F)c3)n(N)c(=O)c2c1C
→ ?	1.3	309%	-10	-7%	1.3	2
CCCCn1c(O)c(/C(C)=N/NC(=O)Nc2ccccc2)c(=O)[nH]c1=O
→ 2.0%	1.0	0.5%	8	7%	7.3	·
CN1C[C@@H]2C[C@@H](c3cccn3-c3ccccn3)N3CCC[C@@]23C1=O
→ -0.7%	-0.6	·	1	11%	-0.1	-1
O=C(Nc1ccc(Cl)cc1)Nc1ccc(Cl)c(Cl)c1
→ ?	1.0&0.5	-1.1%&1.8%	28	3%	-3.2	-12
Clc1cccc(CNCCc2ccc3c(c2)OCO3)c1
→ 5.3%	-0.8	·	5	0%	-0.5	-7
COc1ccc2c(c1)NP(=S)(Oc1ccccc1)N2 (stereo not drawn)
→ 2.4%	1.6	-3.2%	8	32µM*	?	-8
COc1ccccc1CN1CCCCC1c1cccnc1 (stereo not drawn)
→ 0.7%[38.3 µM]	0.6	-1.3%	-2	9%	-2.5	-22
O=C(O)CC1OCC=C2CN3CCC45c6ccccc6NC4C1C2CC35 (stereo not drawn)
→ -1.2%	2.0	-15%	-6	14%	-6.4	14
CC1(C)CC2(CCO1)NCCN1C(=O)CSC12 (stereo not drawn)
→ -2.5%	0.7	-3.4%	-25	4%	0.2	-1
C[C@]12CCC3[C@@H](CCC4=CC(=O)CC[C@@]43CO)C1CCC2=O (stereo partly drawn)
→ 2.1%	0.4	1.9%	-5	3%	-8.5	-20
CN1CCC(O)(c2cccs2)C(C(=O)c2cccs2)C1 (stereo not drawn)
→ 1.3%	-0.1	-1.9%	5	-21%	-0.1	-2
CN1CCN(CC(=O)Nc2ccc(Cl)cc2C(=O)c2ccccc2)CC1
→ -0.3%	-0.6	0.2%	6	6%	-0.8	6
CCOC(=O)c1ccccc1NC(=O)N(Cc1ccc(CC)cc1)Cc1cn[nH]c1-c1ccc(OC)cc1
→ 3.7%	0.4	35µM*	0	·	·	·
CCCCN(CC)c1c([N+](=O)[O-])cc(C(F)(F)F)cc1[N+](=O)[O-]
→ 3.4%	·	·	·	8%	-2.0	·
Cc1nc2cc(C(F)(F)F)ccc2n1C1CCN(Cc2nnnn2Cc2cccs2)CC1
→ 1.5%	10	0.7%	17	5%	4.5	10
COc1ccc(CN2Cc3cnnn3-c3ccccc3C2c2ccccc2)cc1 (stereo not drawn)
→ 0.1%	2.8	-1.5%	1	·	·	·
COC(=O)C1=C(c2ccccc2OCc2ccccc2)C[C@@H]2CC[C@H]1N2C(=O)NCc1ccc(F)cc1
→ -1.0%	1.6	-3.0%	4	·	·	-3
CN1Cc2ccccc2-n2nncc2C1
→ 0.4%	0.8	0.5%	-5	·	·	·
CCOc1cccc(C2NCc3ccccc3-n3cccc32)c1O (stereo not drawn)
→ -1.1%	0.8	-1.3%	0	-8%	1.4	3
CC(C)C[C@H](NP(=O)(O)O[C@@H]1O[C@@H](C)[C@H](O)[C@@H](O)[C@H]1O)C(=O)N[C@@H](Cc1c[nH]c2ccccc12)C(=O)O
→ 2.6%	0.7	-12%	9	·	·	-9
CC(=O)OC1N=C(c2ccccc2Cl)c2cc(Br)ccc2NC1=O (stereo not drawn)
→ -0.3%	-0.1	·	12	-4%	4.3	28
Cc1cc(OCC(=O)NCc2ccc(S(N)(=O)=O)cc2)c2c3c(c(=O)oc2c1)CCC3
→ 7.8%	-0.6	3.0%	4	-2%	-2.0	5
CCc1ccc(OCCCN=C(C)c2c(O)n(C)c(=O)n(C)c2=O)cc1
→ 3.2%	1.5	-4.2%	14	-10%	2.1	13
CCN(CC)C(=O)c1ccc2c(c1)C1C=CCC1C(C(=O)O)N2 (stereo not drawn)
→ 1.2%	0.6	-7.0%	2	11µM*	?	26
CCCCNC(=O)/C(C#N)=c1\s/c(=C\c2ccccc2OC(F)F)c(=O)n1CCCOC
→ ?	1.1	7.5%	-4	-9%	11	-16
Cc1nn(Cc2ccc(Cl)cc2Cl)c(Cl)c1C(=O)O
→ -2.1%	-0.2	-2.5%	-3	16%	-2.3	14
CCCCS(=O)(=O)N1CCN(C(=N)N[N+](=O)[O-])CC1
→ -0.1%	5.2	·	3	6%	-2.8	-10
Cc1cccc(CSc2nc3c(cc2C#N)CN(C)CC3)c1
→ 14%[38.3 µM]	0.6	0.2%	9	-21%	3.7	-9
CCOc1ccccc1Oc1coc2cc(OC(=O)c3ccco3)ccc2c1=O
→ ?	2.5	47%	6	-8%	0.3	-3
CC(C)CCNC(=O)c1c(N)n(CC2CCCO2)c2nc3ccccc3nc12 (stereo not drawn)
→ -0.6%	-1.2	?	-10	-3%	9.1	-11
O=c1[nH]c(=O)n(Cc2ccccc2)c(O)c1C=NCCCO
→ ·	0.9	-1.1%	-3	10%	?	-2
CCCCn1c(N)c(N(CCOC)C(=O)CN2CC=C(c3ccccc3)CC2)c(=O)[nH]c1=O
→ -1.8%	-0.7	-6.6%	-16	8%	0.5	7
O=C(c1ccco1)c1cn(Cc2ccccc2)c2ccccc12
→ 3.5%	1.1	-9.7%	13	-2%	5.1	-23
Cc1ccc(-n2c(O)c(C=Nc3ccccc3N)c(=O)[nH]c2=O)cc1C
→ 2.0%	0.7	-5.4%	16	10%	-0.4	0
